HPGD inh: inhibitors of human 15-hydroxyprostaglandin dehydrogenase (HPGD); purified HPGD, NADH fluorescence kinetic, PGE2 substrate; Potency, µM, for the others: top-dose activity change, negative = inhibition, usual class: inhibitors; 4.3% of 150,000 active; AID 894; active = well fitted inhibition curve with a large enough effect (not every such curve was filed as active); inconclusive = small, poorly fitted or top-dose-only effect, or another doubt; inactive = no such curve, though single readings can be large or run the other way;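 note: top concentration of the series not given in the record; plate controls included wells without enzyme; inactives centre near -10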
Target sequence (P15428 whole entry, looked up): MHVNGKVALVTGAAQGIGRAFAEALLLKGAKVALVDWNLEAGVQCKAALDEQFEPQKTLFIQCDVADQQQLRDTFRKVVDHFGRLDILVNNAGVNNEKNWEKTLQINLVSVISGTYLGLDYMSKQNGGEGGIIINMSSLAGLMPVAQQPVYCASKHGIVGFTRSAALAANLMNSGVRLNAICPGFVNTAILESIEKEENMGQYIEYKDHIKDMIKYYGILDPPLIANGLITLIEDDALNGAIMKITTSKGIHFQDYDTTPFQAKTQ
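20 nM HPGD preincubated 15 min at room temperature with compound in 50 mM Tris-HCl pH 8, 0.01% Tween 20. Started with 1 mM NAD+ and 30 uM prostaglandin E2; NADH fluorescence (360/450 nm) read 5 times over 30-s intervals, last minus first.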
An asterisk follows results filed as active; ? = inconclusive. % is set by controls: 0 for no effect and ±100 for the full control effect; potency is the fitted concentration of half-maximal effect.

The first 16 entries (preview)
SMILES | HPGD inh
Cc1cc(SC(C)C(=O)Nc2c(C)n(C)n(-c3ccccc3)c2=O)nc2ccccc12 (stereo unspecified) | -16.4%
CCC(C)(C)n1nnnc1C(c1ccc(C)cc1)N1CCC(C)CC1 (stereo unspecified) | -2.6%
Cn1cccc1Cc1nnc(SCC(=O)NC2CCCCC2)n1CCc1ccccc1 | -7.1%
O=C(COC(=O)c1n[nH]c(=O)c2ccccc12)c1ccccc1 | -12.3%
C=CCN1C(=NC(=O)CCC(=O)O)SC2CS(=O)(=O)CC21 (stereo unspecified) | -5.8%
Cc1ccc(-c2cc(C(=O)Nc3nccs3)c3ccccc3n2)o1 | ?
Cc1cc(C(=O)COC(=O)c2ccc[nH]c2=O)c(C)n1C1CC1 | -3.1%
Cc1ccc(OCc2nc(-c3ccccn3)no2)c(Br)c1 | 17.8µM*
Cc1c(-c2nc(N)nc(Nc3ccc(F)cc3)n2)oc2ccccc12 | -24.0%
CCCCCCCNC1=CC(=O)CC(c2ccco2)C1 (stereo unspecified) | -9.2%
CN=C1c2cc3cc(OC)ccc3n2CCN1C | -13.7%
Cc1ccc(-c2[nH]ncc2/C=C(\C#N)C(=O)NC2CCCCC2)cc1 | -16.2%
COc1ccccc1N(CC(=O)NCCc1ccccc1)S(C)(=O)=O | -2.4%
O=C(NCCCN1CCOCC1)C1CC(=O)N(CCc2ccccc2)C1 (stereo unspecified) | -8.5%
Cc1ccc(NC(=O)C2CCCN(S(=O)(=O)c3cnc[nH]3)C2)cc1F (stereo unspecified) | -3.7%
Cc1cccc(NC2=C(Cl)C(=O)OC2NC(=O)c2ccccc2)c1 (stereo unspecified) | -3.8%

The listing (from the top)
SMILES | HPGD inh
Cc1cc(SC(C)C(=O)Nc2c(C)n(C)n(-c3ccccc3)c2=O)nc2ccccc12 (stereo unspecified) | -16.4%
CCC(C)(C)n1nnnc1C(c1ccc(C)cc1)N1CCC(C)CC1 (stereo unspecified) | -2.6%
Cn1cccc1Cc1nnc(SCC(=O)NC2CCCCC2)n1CCc1ccccc1 | -7.1%
O=C(COC(=O)c1n[nH]c(=O)c2ccccc12)c1ccccc1 | -12.3%
C=CCN1C(=NC(=O)CCC(=O)O)SC2CS(=O)(=O)CC21 (stereo unspecified) | -5.8%
Cc1ccc(-c2cc(C(=O)Nc3nccs3)c3ccccc3n2)o1 | ?
Cc1cc(C(=O)COC(=O)c2ccc[nH]c2=O)c(C)n1C1CC1 | -3.1%
Cc1ccc(OCc2nc(-c3ccccn3)no2)c(Br)c1 | 17.8µM*
Cc1c(-c2nc(N)nc(Nc3ccc(F)cc3)n2)oc2ccccc12 | -24.0%
CCCCCCCNC1=CC(=O)CC(c2ccco2)C1 (stereo unspecified) | -9.2%
CN=C1c2cc3cc(OC)ccc3n2CCN1C | -13.7%
Cc1ccc(-c2[nH]ncc2/C=C(\C#N)C(=O)NC2CCCCC2)cc1 | -16.2%
COc1ccccc1N(CC(=O)NCCc1ccccc1)S(C)(=O)=O | -2.4%
O=C(NCCCN1CCOCC1)C1CC(=O)N(CCc2ccccc2)C1 (stereo unspecified) | -8.5%
Cc1ccc(NC(=O)C2CCCN(S(=O)(=O)c3cnc[nH]3)C2)cc1F (stereo unspecified) | -3.7%
Cc1cccc(NC2=C(Cl)C(=O)OC2NC(=O)c2ccccc2)c1 (stereo unspecified) | -3.8%
CC1CN(C(=O)c2ccccc2)c2ccccc2NC1=O (stereo unspecified) | -7.5%
CC(C)OC(=O)c1nnc(-c2ccccc2)nc1OC(C)C | -12.8%
Cn1cnnc1Sc1cc(N2CCN(S(=O)(=O)c3ccc(Cl)c(Cl)c3)CC2)ccc1[N+](=O)[O-] | -12.2%
Cc1cc2c(=O)n(C)c(SCC(=O)c3cc4ccccc4o3)nc2s1 | ?
CN1CCN(c2ccccc2NC(=O)Cc2cn(C)c3ccccc23)CC1 | -5.0%
O=C(COC(=O)Cc1cn2ccsc2n1)NCc1ccc2c(c1)OCO2 | 14.1µM*
CCCCN1C(=O)Cc2c1nc(N)c1c(N)nc(N(CCC)CCC)c(C#N)c21 | ?
O=C(NCCCn1ccnc1)c1noc2c1CCCC2 | -1.0%
O=C(NCCCN1CCOCC1)C(C(=O)c1ccccc1)n1ccccc1=O (stereo unspecified) | -9.6%
C=CCn1c(O)c(N=NC(=O)CNC(=O)c2ccco2)c2ccccc21 | -12.1%
Cc1ccc(Sc2nnc(Cc3ccccc3)c3ccccc23)cc1 | -29.1%
Cn1cccc1C(=O)NC(=O)CSc1nc2ccccc2s1 | -14.6%
Cc1ccc(NC(=O)C(=O)NCc2ccc(/C=N/NC(=O)c3c(C)nc4cc(C)ccn34)o2)cc1 | -28.4%
Cc1ccc(CNC(=O)Nc2cccs2)cc1 | -22.8%
CCC(C)(C)n1nnnc1C(c1ccc(O)c(OC)c1)N1CCN(c2nc3ccccc3s2)CC1 (stereo unspecified) | 1.0%
Cc1cccc(Sc2c([N+](=O)[O-])ncn2C)n1 | -11.4%
CN(C)Cc1nc2ccccc2c(=O)n1Cc1nc(C(C)(C)C)cs1 | -5.4%
Cc1ccc(S(=O)(=O)Nc2ccccc2CNc2ncc(Br)cc2Br)cc1 | -18.0%
O=C(CSc1ccsc1[N+](=O)[O-])NCCc1ccc(Cl)cc1 | -11.3%
O=C(Nc1ccc2nn(-c3ccccc3)nc2c1)c1ccc(Br)o1 | -15.8%
CCC1(C)C2(C#N)C(N)=NC(OC)(OC)C12C#N (stereo unspecified) | -5.5%
Cn1c(C(=O)OC(C(=O)NC2CCCC2)c2ccncc2)cc2sccc21 (stereo unspecified) | -13.1%
CCS(=O)(=O)N1Cc2ccccc2CC1C(=O)Nc1nc2ccccc2[nH]1 (stereo unspecified) | -3.5%
COc1ccccc1-n1nc(C(=O)Nc2ccc3c(c2)OCO3)c2ccccc2c1=O | -22.9%
COc1ccccc1N1C(=N)S/C(=C\c2ccc(-c3ccccc3C(=O)O)o2)C1=O | 25.1µM*
CCOC(=O)CSc1nc(-c2ccc(OC)cc2)ns1 | 35.5µM*
CC(C)(C)n1nnnc1C(c1ccc(Cl)cc1)N1CCSCC1 (stereo unspecified) | -6.5%
O=C(c1cc2nc(-c3ccco3)cc(C(F)(F)F)n2n1)N1CCN(Cc2ccccc2)CC1 | ?
O=C(COc1ccccc1F)N1c2ccccc2CCc2ccccc21 | -7.1%
COCc1nnc(NC(=O)CCc2ccccc2)s1 | 2.1%
O=C(Nc1ccccc1N1CCCCC1)c1cccs1 | -3.1%
O=C(O)[C@H](Cc1ccccc1)N1C(=O)c2ccccc2C1=O | -8.4%
CCCCCn1c(SCC(=O)OC)nc2c1c(=O)[nH]c(=O)n2C | -6.0%
CCCCC(c1nnnn1CCOC)N1CCN(Cc2ccccc2)CC1 (stereo unspecified) | 3.6%
Cc1ccc(C)c(NC(=O)c2cc(=O)c3ccccc3o2)c1 | -6.7%
O=c1cc(-c2ccccc2F)oc2ccccc12 | 12.6µM*
Nc1ccccc1SCc1cn2cccnc2n1 | -18.8%
Cc1ccc(C(=O)Nc2ccc3c(c2)OCO3)cc1 | -6.2%
Cc1ccc(NC(=S)c2ccccc2)cc1 | ?
Cc1nn(CC(O)CN2c3ccccc3Sc3ccccc32)c(C)c1Br (stereo unspecified) | -9.4%
COc1ccc(N(CC(=O)NC(C)(C)C)C(=O)c2ccco2)cc1 | -8.4%
CC(C)NC(=O)N1CCOCCOCCN(C(=O)NC(C)C)CCOCCOCC1 | -8.8%
O=c1c(-c2cc(F)cc(F)c2)nc2cnc(N3CCNCC3)nc2n1Cc1cccs1 | -16.4%
COc1ccc(-n2c3c(cc(C(=O)N4CCCCC4)c2=O)C(=O)CC(C)(C)C3)cc1 | -18.1%

Next entries follow:
SMILES | HPGD inh
COC(=O)c1ccccc1NC(=S)NC(=O)C1CCCCC1 | -7.3%
O=C(Oc1ccccc1C(=S)N1CCCCC1)c1cc([N+](=O)[O-])cc([N+](=O)[O-])c1 | 14.1µM*
CCOC(=O)/C=C/C(=O)OCC(=O)NCc1ccccc1 | -16.6%
CCOC(=O)Nc1ccccc1C(=O)N1CCOCC1 | -3.7%
S=C(Nc1ccccc1)Nn1cnnc1 | 14.1µM*
Cc1cc(C)cc(N(CC(=O)N2CCC(C)CC2)S(C)(=O)=O)c1 | -12.6%
c1ccc(-c2csc(N3CCc4ccccc4C3)n2)cc1 | -7.3%
CCOCCCN(Cc1ccco1)C(=O)c1cc2c(=O)[nH]c3ccc(C)cc3c2s1 | -18.6%
Cc1ccc(-c2nnc(-n3nc(C)cc3C)c3ccccc23)cc1 | -13.3%
Cc1noc(/C=C/N(C)C)c1S(=O)(=O)N1CCCC(C(=O)NC2CCCCC2)C1 (stereo unspecified) | -24.4%
CCOC(=O)CCSc1nc(-c2ccc3c(c2)OCO3)cc(C(F)(F)F)c1C#N | ?
COc1ccc(N=Cc2c(O)[nH]c3ccccc23)cc1OC | -10.9%
COC(=O)CN(c1nc(C)cc(OC)n1)S(=O)(=O)c1ccccc1 | -5.0%
COC(=O)c1sc2nc(C)cc(-c3ccccc3)c2c1N | -17.4%
CCOP(=O)(c1c(F)c(F)c(F)c(F)c1F)C1(O)CCCCC1 (stereo unspecified) | -9.7%
COc1cc(/C=N\NC(=O)C2CC3C=CC2C3)ccc1O (stereo unspecified) | -16.7%
COC/C=C/C1=CC2=CC(=O)C(C)(OC(=O)c3cnc4ccccc4n3)C(=O)C2=CN1Cc1ccco1 (stereo unspecified) | -5.0%
Cc1cc(S(=O)(=O)N(Cc2ccccc2)Cc2ccc(N(C)C)cc2)ccc1-n1cnnn1 | -3.8%
COc1cc(CN(CCc2c(C)[nH]c3ccc(C)cc23)C(=S)NC(C)(C)C)cc(OC)c1OC | -9.9%
Cc1cc(/C=C(\C#N)C(=O)OCC(=O)Nc2ccc(OC(F)F)cc2)c(C)n1CC(C)C | ?
Cc1cc2c(c(C)c1Cl)C(c1ccc3c(c1)OCO3)CC(=O)O2 (stereo unspecified) | -18.1%
COc1cc(-c2nnc(COc3ccc4ccccc4c3)o2)cc(OC)c1OC | -29.1%
CCCCOC(=O)/C=C/c1c(C)[nH]c(=O)[nH]c1=O | -13.4%
c1ccc(-c2noc(CN3CCN(C(c4ccccc4)c4ccccc4)CC3)n2)cc1 | -2.7%
O=C(c1ccc2c(c1)N(Cc1ccc(F)cc1)C(=O)CS2)N1CCOCC1 | -3.1%
Cc1c(Cc2ccccc2)sc(/N=C/c2ccc3ccccc3c2)c1C(N)=O | ?
Cc1ccc(NC(=O)CC2Oc3ccc(C)cc3NC2=O)cc1 (stereo unspecified) | -11.3%
CCOC(=O)NCCc1ccc(OC)cc1 | -2.2%
CCC1CCCCN1C(=O)CSc1nc2ccsc2c(=O)n1Cc1ccccc1 (stereo unspecified) | -13.6%
OCCNc1nc2ccccc2[nH]1 | -3.1%
O=C(NC1CCCC1)C(c1ccsc1)N(C(=O)Cc1cccs1)c1ccc(F)cc1 (stereo unspecified) | -9.0%
CCOC(=O)C1C(=O)Oc2ccc3ccccc3c2C1C1CCOC1=O (stereo unspecified) | -11.1%
COC(=O)c1cc2sccc2n1Cc1nc(-c2cccc(Cl)c2)oc1C | -7.8%
Cc1ccc(S(=O)(=O)N(C)Cc2ccc(C(=O)N/N=C/c3ccc(OC(F)F)cc3)cc2)cc1 | -8.4%
c1ccc2c(c1)OCC(c1csc3ncnc(N4CCOCC4)c13)O2 (stereo unspecified) | -4.9%
O=C(NCc1cccnc1)C1CCN(S(=O)(=O)N2CCOCC2)CC1 | 0.8%
CC(C)N(Cc1nc2ccccc2[nH]1)C(C)C | -7.5%
COc1ccc(/C(C)=N/OCC(=O)Nc2nc3ccccc3s2)cc1 | -8.0%
CCC(C)Cn1c(C)nc2ccccc21 (stereo unspecified) | -4.4%
O=[N+]([O-])c1ccc(N2CCN(c3ccccc3O)CC2)c(Cl)c1 | ?
Nc1c(N2CCOCC2)cc(Cl)c2nonc12 | -15.9%
COc1ccc2nc(NC(=O)C3CCN(S(=O)(=O)c4cccs4)CC3)sc2c1 | -15.1%
COc1cccc(Cn2c(=O)c(-c3cccc(F)c3)nc3cncnc32)c1 | 20µM*
Cc1nc2ccccc2c(=O)n1CCCO | 3.1%
Cc1cc(C)cc(NC(=O)C2CCCN(S(=O)(=O)c3cnc[nH]3)C2)c1 (stereo unspecified) | -5.6%
O=C(Nc1ccc(-c2csc(-c3ccccc3)n2)cc1)c1ccccc1Cl | ?
CCOC(=O)N1CCC(NC(=O)CS(=O)(=O)Cc2nc(-c3ccccc3C)oc2C)CC1 | 0.6%
CC(C)(C)NC(=O)Cn1c(SCC(N)=O)nc2ccccc21 | -5.1%
OCCN1CCN(c2cc(-c3ccccc3)c3ccccc3n2)CC1 | -23.7%
COc1ccc(OC)c(Nc2ncnc3ccccc23)c1 | -24.1%
CCOC(=O)C1C(=O)OC(C)(C)C1C(C)C(=O)c1ccccc1 (stereo unspecified) | -0.1%
O=C(O)c1ccccc1-c1nc2ccccc2c(=O)[nH]1 | -11.5%
CCc1cccc(NC(=O)Cn2ncn3c(cc4ccccc43)c2=O)c1 | ?
Cc1ccc(C(=O)O[C@H](C(=O)O)[C@@H](OC(=O)c2ccc(C)cc2)C(=O)O)cc1 (tested in a mixture with another compound) | -6.1%
O=S(=O)(Nc1cccnc1)c1ccc2c(c1)OCCO2 | -2.3%
Cc1ccc(CSc2sc(C(=O)c3ccccc3)c(N)c2C#N)cc1 | ?
CCOC(=O)c1[nH]c(=O)[nH]c1CSc1ccccn1 | -28.4%
CC1CN(C(=O)C2CCCN2S(=O)(=O)c2ccc(Cl)cc2)CC(C)O1 (stereo unspecified) | -7.6%
CN1CCN(C(N)=NC(=O)c2ccccc2)CC1 | -6.6%
Cc1ccc(S(=O)(=O)n2nc(-c3cccnc3)nc2N)cc1 | -8.7%
COc1ccc(-c2nnc(SCC(=O)c3cccs3)o2)cc1 | -15.3%
CN(C)c1ccc(/C=N\S(=O)(=O)c2ccccc2)cc1 | -10.7%

Screens: PubChem, National Center for Advancing Translational Sciences (NCATS)

These rows are one share of the data. The share of hits here may be higher or lower than overall.
